From PubChem BioAssay
BasE inh – BasE siderophore biosynthesis inhibition | 84,000 compounds, 0.1% hits | inhibition, % (test concentration not listed) | AID 485350 | purified BasE, fluorescence polarization binding displacement;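 active = both replicates above 25% with normal brightness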;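 note: 0% = negative plate control signal and 100% = positive plate control signal; stock transfer was 100 nL into about 30 µL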
LANA-nucl inh – LANA-nucleosome interaction inhibition; FITC-LANA1-23 / chicken nucleosome fluorescence polarization; active compounds read low; z-score (test concentration not listed); 51,000 compounds, 0.3% hits; AID 720717;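 active = both repeat wells score below -2 in polarization z-score versus plate sample wells, excluding overly bright wells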;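 note: 100 nL library stock added to about 30 µL; numbers are from one replicate; some results filed as inactive read as strong as hits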
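Assay system: FITC-LANA peptide and chicken nucleosomes; input: 240 nM purified chicken nucleosomes (480 nM peptide binding sites), final; also added: 50 nM FITC-LANA1-23 probe; medium: TEN-BT buffer, pH 7.5; doses: pin-transferred compound, 100 nL; times: 10–45 min, room temperature; technique: fluorescence polarization; replication: duplicates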
* = called active by the depositor; · = not tested or not shown; & = joins results of further samples.

molecule | LANA-nucl inh | BasE inh
O=C1c2ccccc2C(=O)N1CC(=O)N1c2ccccc2Sc2ccccc21 | · | -1.0
Cc1nnc(SC/C=C/c2ccccc2)[nH]c1=O | 0.21 | -3.3
O=C(Cn1c(=O)oc2ccccc21)N1CCC(c2ccccc2)C1 (configuration not stated) | 0.55 | 0.2
O=C(Cn1c(=O)c2cccn2c2ccc(F)cc21)NCCN1CCCCCC1 | 0.44 | -0.1
CCOC(=O)C1(C2(O)C(=O)c3ccccc3C2=O)CCCC1=O (configuration not stated) | 0.79 | 1.1
CC(C)(C)c1nnc(-c2cccc(NS(=O)(=O)c3ccc(-c4ccon4)s3)c2)o1 | · | 1.5
O=C1CCCCC(=O)c2ccccc2N1 | 0.13 | -1.8
Cc1ccc(-n2c(SCc3cc(C)on3)nc3sc(C)c(C)c3c2=O)c(C)c1 | · | 2.5
COc1ccc(C2=NCC(CSc3nnnn3C)S2)cc1 (configuration not stated) | · | 0.7
CCOC(=O)/C(C#N)=N/Nc1ccc(SC(F)F)cc1 | · | 0.9
COc1ccc(S(=O)(=O)c2ccc(O)cc2)cc1 | 0.13 | 51*
Cc1ccc(N2CC(=O)Nc3c(oc4nc(-c5ccccc5)cc(C)c34)C2=O)cc1 | -0.54 | 0.9
COC(=O)C1C(=O)NC(S)=C(C#N)C1c1ccccc1Cl (configuration not stated) | 1.6 | -7.6
Cc1nccn1CCN | 0.41 | 0.6
COC(=O)C(C)n1cnc2c(cnn2-c2ccc(F)cc2)c1=O (configuration not stated) | 0.29 | -1.1
CC(=O)Nc1cc2c3c(c1)CC(=O)N3CCC2 | -1.5 | 1.7
Cc1nc(N=Nc2c(O)[nH]c3ccccc23)c2c3c(sc2n1)CCCC3 | · | 3.8
COc1ccccc1CCNC(=O)c1cnn2c(C(F)F)cc(C)nc12 | 0.12 | 2.6
Cc1nc(=O)c(-c2ccccc2)c(C)n1-c1ccc(C(=O)O)cc1 | · | 1.7
Cc1nn(CC(C)C)c(C)c1CC(=O)O | · | 0.7
O=C(C1CC1)N1N=CCC1(O)C(F)(F)F (configuration not stated) | · | -0.9
Cc1ccc(CCC(N)=O)o1 | 0.6 | -0.4
O=C(Nc1ccccc1)C1CCN(c2ncnc3c2nc2n3CCCCC2)CC1 | 0.51 | -0.2
CC1(C)CC(=O)OC1(C)C | · | 2.2
CC1CN(C(=O)c2ccc3ccccc3n2)CC(C)O1 (configuration not stated) | · | 0.8
O=C(CCc1c[nH]c2ccccc12)Oc1ccc2c(c1)OCO2 | · | -2.6
CN(CC(=O)N(Cc1cccs1)c1ccc2c(c1)OCCO2)Cc1ccco1 | · | 0.6
CCOc1ncccc1C(=O)N(C)Cc1c(C)nn(-c2ccccc2)c1C | · | 1.2
O=C(NC1CCCCC1)C(c1ccco1)N(C(=O)C1COc2ccccc2O1)c1cccc(F)c1 (configuration not stated) | -0.41 | 1.1
O=C(NC1CCS(=O)(=O)C1)c1cccc(C(F)(F)F)c1 (configuration not stated) | · | 1.9
N=Cc1cc(-c2ccccc2)oc1S | · | 1.6
Cc1cc(-c2onc(C)c2C(N)=O)no1 | · | 2.3
COc1ccc(NC(=O)c2ccc(C)o2)cc1Cl | 0.22 | -1.1
Cc1ccc(CN(C)S(=O)(=O)c2ccc(C(=O)NCC(F)(F)F)cc2)o1 | · | -1.1
CN(C)CCCNc1nnc(Cc2ccccc2)c2ccccc12 | 0.91 | ·
Nc1nc(SCC(=O)Nc2ccc3c(c2)OCO3)n[nH]1 | · | 1.0
CSC1=NN(C)c2cnn(C)c(=O)c2S1 | · | -1.3
CC(=O)Nc1ccc(NC2CCCCC2NS(=O)(=O)c2ccc(Cl)cc2)cc1 (configuration not stated) | -1 | 1.9
Cc1cc(SC/C(O)=C(\C#N)c2nc3ccccc3[nH]2)nc2ccccc12 | · | -1.4
COC(=O)c1c[nH]n2c(=O)c(Cc3ccc(C)cc3)c(C)nc12 | -0.28 | 1.5
Cc1c(C)n(C(=O)CSc2ccc(Cl)cc2)c2ccccc12 | · | 2.0
Cc1ccc(S(=O)(=O)CC(=O)Nc2cc(Cl)ccc2N2CCOCC2)cc1 | -1.2 | -18
CN(C(=O)/C=C/c1ccco1)c1c(N)n(Cc2ccccc2)c(=O)[nH]c1=O | · | 2.4
O=C(/C=C/NCc1ccccc1)C(F)(F)F | · | 0.5
C/C(N)=C(/C#N)C(=O)CSc1nc2ccccc2c(=O)[nH]1 | · | -0.2
CNC(=O)c1cc(S(=O)(=O)N2CCCc3ccccc32)ccc1C | -0.12 | 0.2
COc1ccc(C(CNC(=S)NCc2ccco2)N2CCCCC2)cc1 (configuration not stated) | · | 1.5
CCC1(C)Cc2nc3nc(SCC(=O)c4ccccc4)n(Cc4ccccc4)c(=O)c3cc2CO1 (configuration not stated) | · | 12
CCCCn1c(SCC(=O)c2ccc(OC)cc2OC)nc2cc(S(N)(=O)=O)ccc21 | · | -3.9
O=C(Cn1ncc2c(=O)oc3ccccc3c21)NCCc1ccsc1 | 2.3 | 1.2
CCOC(=O)N1CCC(NC(=O)c2cc3c(s2)CS(=O)(=O)C3)CC1 | -0.11 | 5.3
CCOC(=O)C1CCN(Cn2c(=S)oc3ccc(S(=O)(=O)CC)cc32)CC1 | · | 2.5
O=C(NC1CCCCC1)NC1CCN(Cc2nnnn2Cc2ccco2)CC1 | -0.2 | 1.0
O=C(NC(NC1CCCCC1)(C(F)(F)F)C(F)(F)F)c1ccccc1 | · | -0.8
O=C1NC(=O)C(=Cc2ccc(N3CCCC3)o2)C(=O)N1 | 4.2 | 2.8
CN(CC(=O)Nc1ccc(F)cc1)C(=O)Cn1nnc(-c2ccccc2)n1 | · | 0.0

Next structures:
molecule | LANA-nucl inh | BasE inh
CN1/C(=C(\C#N)C(=O)CSc2nnc(-c3ccc(Cl)cc3)o2)Sc2ccccc21 | · | -0.2
CCN(CC)/C(C)=N/C(=S)Nc1ccccc1 | · | 1.5
NC(=S)c1ccc(O)cc1 | · | 5.6
CN1CCC(=NNC(=O)c2ccc(CN(c3ccccc3)S(C)(=O)=O)cc2)CC1 | -0.45 | 1.4
CC(C)(C)OC(=O)N1CCC[C@H]1C(=O)Nc1ccc(C#N)cc1 | · | -0.2
CCC(O)(CC)C12CC3CC(CC(C3)C1)C2 | · | 1.7
O/N=C/c1ccnc(SCc2ccc(Cl)cc2)n1 | · | 2.6
COc1ccc(S(=O)(=O)Nc2ccc(F)cc2C)cc1OC | -0.4 | 3.4
Cc1nc2ccccc2nc1C(=O)NCCCN1CCN(c2ccccc2)CC1 | 0.04 | 1.7
Cc1ccc(F)cc1NC(=O)N1CCN(C2c3ccccc3-c3ccccc32)CC1 | -0.91 | ·
COC(=O)c1cc(CSc2nc3ccccc3c(=O)n2C)oc1C | · | 5.2
C[N+](C)(C)CC(O)COc1ccccc1 (configuration not stated) | 0.46 | 0.2
CN1/C(=C\C(=O)Nc2cccnc2)c2ccccc2CC1(C)C | -0.16 | 0.9
CCOC(=O)c1noc(C)c1-c1csc(Nc2cc(C(F)(F)F)cc(C(F)(F)F)c2)n1 | -0.34 | 0.8
CCN(C(=O)NCc1noc2ccccc12)c1ccccc1 | 0.25 | -0.2
O=C1/C(=N\O)CC(OC(=O)c2ccccc2)C/C1=N/O (configuration not stated) | -1.1 | -0.2
Cc1nc2ccc3c(c2s1)CCCC3 | 0.2 | 0.1
Cc1cc(Oc2nc3cc(Cl)ccc3s2)c2cc(Cl)ccc2n1 | · | 0.0
CCOC(=O)c1cnc(N2CCCCC2)[nH]c1=O | 0.24 | -1.7
CCOC(=O)NC(=S)Nc1ccc(F)cc1 | · | -1.3
Cc1cc(N)c(N)cc1C | · | -1.7
N#Cc1cccc(NC(=O)CSc2ccccc2)c1 | -0.46 | 1.2
COCCOc1ccc(C(F)(F)F)cc1NCC(=O)Nc1cccnc1Cl | · | 5.9
CC12CCC(c3nnc(SCC(=O)Nc4cccc(C(F)(F)F)c4)nc31)C2(C)C (configuration not stated) | · | 4.1
CN1/C(=C\C(=O)COC(=O)CCN2C(=O)C3CC=CCC3C2=O)C(C)(C)c2ccccc21 (configuration not stated) | · | -0.8
CCOc1ccccc1N=C1SC(CC(=O)Nc2ccccc2)C(=O)N1Cc1ccco1 (configuration not stated) | · | 1.5
CCOc1ncccc1C(=O)NC(C)CCc1ccccc1 (configuration not stated) | · | 2.1
Cc1ccc2c(COC(=O)c3ccc(-n4cnnn4)cc3)cc(=O)oc2c1 | · | 1.6
COc1ccc(-n2nc3cc(C)c(NC(=O)c4ccc5c(c4)OCO5)cc3n2)cc1 | -0.013 | 0.7
CC(=O)Nc1ccc(NC(C)=O)c(C(F)(F)F)c1 | -0.1 | 5.8
CC(=O)NC1C(=O)NC(=S)N(c2ccccc2)C1=O (configuration not stated) | · | 1.1
COc1ccccc1/C=C/C(=O)Nc1ccccc1C(=O)NCc1ccco1 | · | -0.9
N#CC1(NC(=O)COc2cccc(C(F)(F)F)c2)CCCCC1 | · | 1.0
COc1ccc(CCNc2ncccc2C#N)cc1OC | · | 1.2
COc1ccc2cc([C@H](C)C(=O)O)ccc2c1 | -0.078&1.1&-0.75&-0.0075&0.22 | -2.7&-0.1
FC(F)(F)c1nc(SCc2ccc(Cl)cc2)n[nH]1 | · | 0.2
COCCNC(=O)Cn1cnc2c(nc3n2CCCCC3)c1=O | 0.73 | 1.9
N#Cc1c(N2CCOCC2)nc(N2CCOCC2)c2c1CCN(Cc1ccccc1)C2 | -0.56 | 0.9
Cc1[nH]nc2c1C1=C(C(=O)CCC1)C(c1ccc(N(C)C)cc1)N2 (configuration not stated) | · | 1.0
FC(F)(F)c1cc(-c2cccs2)nc2nc(N3CCOCC3)sc12 | · | 2.2
COc1cc(OCc2ccccc2)ccc1CN1CCC(C(=O)c2ccc(F)cc2)CC1 | · | -0.1
CCN(CC)C(=O)C1=CC(c2ccco2)=NS(=O)(=O)N1C | -0.45 | -0.4
CCN(CC)C(=O)Cn1cc(/C=C(\C#N)C(=O)N2CCN(c3ccccc3)CC2)c2ccccc21 | 0.1 | -4.7
CC1=NN(c2cc(C)nc(-c3ccccc3O)n2)C(=O)C1 | -0.43 | 2.5
O=C1C2CCCN2C(c2ccccc2)N1c1ccc(Cl)cc1 (configuration not stated) | -0.34 | 1.5
N#CCCSCc1ccc(C(=O)O)o1 | 0.013 | -2.9
Cc1csc(SCC(=O)N2CCCC2)n1 | -0.6 | 1.1
NNC(=S)Nc1ccccc1C(F)(F)F | · | -3.7

Profiles as entered above. Order of screens: LANA-nucl inh, BasE inh
CN1CCC(=NNC(=O)c2ccc(CN(c3ccccc3)S(C)(=O)=O)cc2)CC1 is listed as -0.45, 1.4
N#Cc1cccc(NC(=O)CSc2ccccc2)c1 is listed as -0.46, 1.2
FC(F)(F)c1nc(SCc2ccc(Cl)cc2)n[nH]1 is listed as ·, 0.2
CN(CC(=O)N(Cc1cccs1)c1ccc2c(c1)OCCO2)Cc1ccco1 is listed as ·, 0.6

(further entries)
molecule | LANA-nucl inh | BasE inh
Cc1ccc(Cn2c(CO)cnc2SCC(=O)Nc2ccc3c(c2)OCO3)cc1 | -0.76 | 1.9
C=CCN(CC=C)Cc1cc(=O)n2c(-c3ccccc3)csc2n1 | · | -2.1
O=C(CNCCC1=CCCCC1)Nc1ccc2[nH]c(=O)[nH]c2c1 | · | 0.2
Cc1ccc(N2C(=O)CS/C2=N\C(=O)Nc2ccccc2)c(C)c1 | -0.86 | 0.0
CCn1c(SCC(=O)OCC(=O)N2c3ccccc3Sc3ccccc32)nnc1-c1ccco1 | · | 1.5
Cc1ccc(CNC(=O)c2ccc(N3CC(C)Sc4ccccc43)s2)o1 (configuration not stated) | 0.49 | 1.2
O=C(CSc1nnc(-c2ccc(Cl)cc2)o1)NC1CCSc2ccccc21 (configuration not stated) | · | -0.7
CC(Sc1nnc2ccccn12)C(N)=O (configuration not stated) | · | 0.9
O=C(O)/C=C/c1cccnc1 | -0.61 | -0.3
Cc1ccc(S(=O)(=O)n2cc(/C=C(\C#N)C(N)=O)c3ccccc32)cc1 | · | 3.0
c1ccc(-c2nn(-c3ccccc3)[n+](-c3nnn[n-]3)n2)cc1 | -0.22 | 2.4
CCCCC(=O)Nc1ccc(NCc2ccc(C)s2)cc1 | · | -2.6
CNC(=S)Nc1ccc(OC)c(OC)c1 | -1 | 1.1
COc1ccccc1-n1c2nc3ccccc3nc2c2c(=O)n(C3CCCC3)cnc21 | 0.007 | 2.9
Cc1nc2cc(C(=O)OC(C)C(=O)N3CCOCC3)ccc2n1-c1ccccc1 (configuration not stated) | · | -14
CC(COc1ccc(C(C)C)cc1)NS(=O)c1ccc2ccccc2c1 (configuration not stated) | · | 2.6
CNC(=S)N/N=C(\C)c1ccccc1OC | · | 2.8
c1ccc(-c2cn3nc(C4CCCCC4)sc3n2)cc1 | -0.31 | -1.3
COc1ccc(C(C)NC=O)cc1OC (configuration not stated) | 0.26 | 0.1

An excerpt (hit frequency here may not be typical).
